Bioassay records as filed in PubChem.
Calb FLC – C. albicans growth inhibition with fluconazole, primary screen, CaCi-2 strain, Alamar Blue fluorescence. C. albicans CaCi-2 (fluconazole-resistant clinical isolate) + fluconazole, 48 h. growth inhibition, % (concentration not given with the values). actives 0.57% (n = 300,000);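 active = most replicates above 75%; inconclusive = exactly half above 75%; inactive = most below 75%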;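 also: all wells also contain fluconazole at 8 µg/ml as a sub-toxic cotreatment; 0% = median of DMSO wells and 100% = median of geldanamycin control wells; wells of about 8 µL received 7.5 nL stock; the first replicate is given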
RanGTP-Impb inh – inhibitors of RanGTP-importin-beta interaction, primary screen, biochemical, FRET, CFP-Ran, YFP-importin-beta, homogeneous; Ran GTPase (GTP-bound) - importin-beta complex; cell-free CFP-Ran/YFP-importin-beta FRET ratio; inhibition, % (no concentration beside the values); actives 1.1% (n = 300,000);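 active = most replicates above 15%; inconclusive = exactly half above 15%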;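 also: 0% = DMSO wells and 100% = Ran loaded with GDP instead of GTP; wells of about 40 µL received 100 nL stock; the first replicate is given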
LANA-H2B inh – blockers of LANA interaction with H2A/H2B – biochemical, FP readout, HTS, primary screen | Protein LANA1 (Human herpesvirus 8 type P (isolate GK18)), Q9QR71 | cell-free LANA-H2A/H2B peptide, fluorescence polarization | inhibition, % (concentration not given with the values) | actives 0.6% (n = 320,000) | AID 2629, 2010; in the data active = inhibition mostly above about 10%, no sharp cut-off; inactive = mostly below about 6.7%;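 also: stock transfer was 7.5 nL into about 10 µL; 0% = median of vehicle wells and 100% = median of positive control wells; one replicate is shown; the record names a cut of 25% in any replicate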
Beta cell apopt – inhibitors of cytokine-induced beta cell apoptosis, primary screen, luminescence | INS-1E cytokine-induced death, ATP luminescence, 48 h; percent of positive-control rescue, neutral wells zero | protection from apoptosis, % (concentration not given with the values) | actives 0.8% (n = 300,000);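 active = all replicates at 75% or more, or half of them and the mean; inconclusive = half reach 75% but not the mean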;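 also: 0% = cytokine-treated negative control wells and 100% = positive control rescue; higher means more ATP so stronger rescue from cytokine killing; wells of about 40 µL received 100 nL stock; the first replicate is given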
A1 inh – caspase 3/7 activation in MEF A1-2A-BIM cells, primary screen, A1 inhibitor project, cell-based, luminescence, HTS; actives 0.066% (n = 330,000); AID 2462, 2010; Caspase-Glo 3/7 luminescence, 3 h; percent of clofoctol response, vehicle zero; caspase activation, % (test concentration not listed);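 active = over half of replicate activation scores above 10%, or exactly half above 10 with the replicate mean above 10; inconclusive = replicate mean below 10 yet half the replicates above 10; inactive = over half of replicates below 10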;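 also: wells of about 30 µL received 50 nL stock; many hits fall short of the cut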
AF4-AF9 inh – inhibitors of AF4 peptide binding to AF9, primary screen, biochemical, AlphaScreen, biotin-AF4 peptide, FLAG-AF9, single point | Protein AF-9 (Homo sapiens), P42568 | inhibition, % at 10 µM | actives 0.47% (n = 350,000) | AID 651704, 2012;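 active = every replicate reaching a set inhibition limit, whatever the replicate mean, cut at about 25% in these data; inconclusive = mean inhibition reaches that limit but some replicates miss it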;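 also: 0% = plate neutral control median and 100% = total signal loss; the record names both 10 and 1 µM as test concentration; the first replicate is given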
Target sequence (P42568 whole entry, looked up): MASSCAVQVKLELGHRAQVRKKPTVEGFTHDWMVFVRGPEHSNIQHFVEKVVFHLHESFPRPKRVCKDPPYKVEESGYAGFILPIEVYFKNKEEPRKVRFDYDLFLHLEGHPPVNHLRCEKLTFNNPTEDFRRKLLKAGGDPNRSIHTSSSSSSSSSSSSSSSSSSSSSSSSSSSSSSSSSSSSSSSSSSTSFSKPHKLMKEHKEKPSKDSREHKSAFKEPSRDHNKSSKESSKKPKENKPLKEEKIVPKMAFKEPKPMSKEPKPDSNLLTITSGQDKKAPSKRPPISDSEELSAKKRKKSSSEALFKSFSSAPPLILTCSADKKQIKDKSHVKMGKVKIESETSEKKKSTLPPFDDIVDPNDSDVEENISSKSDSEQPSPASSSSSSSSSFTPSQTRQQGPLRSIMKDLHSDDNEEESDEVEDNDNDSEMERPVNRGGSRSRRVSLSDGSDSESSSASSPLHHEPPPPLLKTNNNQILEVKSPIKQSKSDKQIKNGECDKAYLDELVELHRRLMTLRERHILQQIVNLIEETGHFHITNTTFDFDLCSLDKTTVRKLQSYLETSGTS
Vif TR-FRET – inhibitors of Vif binding to APOBEC3G peptide, primary screen, biochemical, TR-FRET, GST-Vif 1-94, biotin-A3G peptide, dose response retest (AID 1117319); TR-FRET GST-Vif / biotin-A3G peptide binding; higher % means a stronger effect; test concentration not given here; strong numbers were not always called active; inhibition, %; hits with a dose series show IC50 in µM; actives 0.57% (n = 260,000); Virion infectivity factor (Human immunodeficiency virus type 1 group M subtype B (isolate …;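 active = above the screen mean plus three standard deviations and confirmed in dose response; inconclusive = results disagree or hit not tested in dose response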;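 also: Vif residues 1-94 fused to GST binding biotinylated APOBEC3G peptide 110-148; 0% = full assay without inhibitor and 100% = GST in place of GST-Vif; retest series ran down from 100 µM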
T cruzi repl – inhibitors of intracellular T. cruzi growth, primary screen, luminescence, NIH3T3 host cells; T. cruzi beta-gal in NIH3T3, 90 h; inhibition, % (concentration not given with the values); actives 1.4% (n = 300,000); AID 1885, 2009;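 active = mean inhibition across valid replicates above about 55%, limit read from the data; inconclusive = mean below that limit but half or more replicates reach it; inactive = mean below it, under half of replicates reach it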;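 also: signal also drops with host cell toxicity which is not excluded here; 0% = plate median of DMSO wells and 100% = zero luminescence signal; higher percent means less beta-gal luminescence so fewer parasites; stock transfer was 50 nL into about 50 µL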
* hit, by the source's call; ? = inconclusive; nt = not tested or not shown; & = joins results of further samples. Rows are unselected; any-hit rate near 4.3%.

SMILES	Calb FLC	RanGTP-Impb inh	LANA-H2B inh	Beta cell apopt	A1 inh	AF4-AF9 inh	Vif TR-FRET	T cruzi repl
NC(=O)c1nsc(C(=O)N(Cc2cccnc2)C(C(=O)NC2CCCC2)c2ccc(F)cc2)c1N (stereo not drawn)	-13	-1.2	-6.7	-4	0.2	-10	13%	6
Cn1c(=O)cc(OCCCC(=O)NCCCN2CCN(Cc3ccccc3)CC2)c2ccccc21	0	6.5	4.0	-4	0.5	nt	-4%&-5%	-7
CCc1ccc(N2C(=O)CN(Cc3cc(OC)c(OC)c(OC)c3)C2=S)cc1	-13	5.0	-12	2	-0.3	nt	8%	-27
COc1cc(C(C)=O)ccc1OCC(O)CN1CCN(c2ccc(F)cc2)CC1 (stereo not drawn)	3	2.2	2.7	-5	0.2	-1.2	-6%	0
CCCCNC(=S)NNc1c(Cl)cc(Cl)cc1Cl	5	0.0	0.1	-9	1.4	0.5	-4%	15
Oc1ccc(-c2nccc(-c3ccc(Cl)cc3)n2)cc1	11	2.4	-0.2	nt	-0.5	0.5	-8%	39
O=C(c1cccc2nc3ccccc3nc12)N1CCOCC1	1	-1.7	-2.2	5	0.0	-0.8	5%	-2
CCOc1ccccc1NC(=O)N1CCC(n2nnc3cc(C)ccc32)CC1	4	1.1	4.3	2	0.8	nt	-2%	-5
C=CCNC(=O)c1sccc1Oc1ccc(F)cc1[N+](=O)[O-]	-5	-1.3	-1.8	-4	-0.1	1.4	-3%	-3
Cc1c(-c2cccs2)[n+](=O)c2c(n1[O-])CCCCC2	3	6.7	-6.5	-7	-0.4	nt	3%	-10
Cn1c(SCC(=O)Nc2cc(Cl)cc(Cl)c2)nnc1-c1ccc2nonc2c1	-1	6.0	0.9	-8	0.9	0.5	12%	17
CC1CCN(c2ccc([N+](=O)[O-])cn2)CC1	-19	0.5	0.3	-10	-0.5	nt	5%	-10
Cc1ccc(NC(=O)C2CCCC2)cc1Cl	13	1.8	-0.7	nt	0.5	1.4	nt	-7
CSCC[C@H](NC(=O)OC(C)(C)C)c1nnc(SCc2cccc(F)c2)o1	-3	2.1	-2.2	-9	0.5	nt	7%	14
CN(CCC1CCOCC1)C(=O)CC1C(=O)NCCN1Cc1ccccc1F (stereo not drawn)	3	2.6	1.9	-3	0.0	-0.1	nt	2
COc1ccc2nc(NCCO)[nH]c2c1	1	8.4	0.5	nt	0.6	nt	-1%	-11
CCOC(=O)c1ccccc1NC(=O)COC(=O)C1CCN(S(=O)(=O)c2ccccc2C(=O)OC)CC1	-3	-0.6	0.3	-2	0.7	0.3	3%	6
Cc1ccc(C(=O)N2CCN(c3ccc([N+](=O)[O-])c(N4CCOCC4)c3)CC2)cc1	-9	-4.0	nt	-7	0.5	6.0	-1%	-5
S=c1[nH]nc(-c2cccs2)n1C1CCCCC1	-21	0.6	-1.4	-2	0.8	-5.9	-5%	-4
CN1CCc2c1nc1ccccc1c2NC(=O)CN1CCCC1	5	6.5	-1.0	-5	0.7	-3.6	-5%	7
O=C(Oc1ccccc1F)c1ccc2c(=O)n3c(nc2c1)CCC3	-2	1.2	-1.9	-2	0.3	12	8%	-8
CC(=O)C1=C(C)NC(=O)NC1c1ccccc1OCC(=O)NCCc1ccccc1 (stereo not drawn)	-4	-0.5	-2.3	-3	0.5	nt	1%	-3
O=C(Oc1cccc2cccnc12)c1ccco1	-3	1.2	3.6	-1	0.2	nt	4%	-13
Cc1cc(C)cc(NC(=O)CCN2C(=O)c3ccccc3C2=O)c1	2	2.7	1.5	-1	-0.3	-1.1	-6%	-10
COC(=O)c1cc(C(=O)OCC(=O)NCc2ccc3c(c2)OCO3)cc([N+](=O)[O-])c1	3	0.2	13	0	0.7	-6.5	2%	-12
CCC(C)N(C(=O)COC(=O)CSc1ccc([N+](=O)[O-])cc1)C1CCS(=O)(=O)C1 (stereo not drawn)	5	-1.4	-2.6	-8	-1.1	-0.5	nt	-7
CCN(CC)S(=O)(=O)c1cccc(C(=O)Nc2cccc(C)c2)c1	-1	-5.2	-1.0	-3	-3.5	nt	0%	14
CCCCC1N2CC3([N+](=O)[O-])CN1CC([N+](=O)[O-])(C2)C3(C)C (stereo not drawn)	5	-0.5	-2.6	0	0.5	-1.4	20%	-9
Cc1ccc(NC(=O)c2ccc(OC(F)(F)F)cc2)cc1S(=O)(=O)N(C)C	24	6.1	-1.8	-22	0.6	nt	-6%	1
Cc1ccc2nc3n(c(=O)c2c1)-c1cc(Cl)ccc1C(=O)NC3Cc1ccc(O)cc1 (stereo not drawn)	nt	nt	4.1	-10	-1.8	6.4	nt	nt
O=C(Cc1sc(-c2ccccc2)nc1-c1ccccc1)Nc1ccc(Cl)cc1	0	-1.4	9.9	19	-0.3	nt	-76%	7
Cc1ccccc1NC(=S)NCc1ccc2c(c1)cc(C)n2C	-10	?	-0.8	6	0.8	15	-8%	24
CCOc1ccc(NC(=O)CCCn2nc(C)c3c(C)n(-c4ccccc4)nc3c2=O)cc1	38	-3.3	2.7	-4	-1.8	-7.6	nt	2
O=C(Cn1c(-c2ccccc2Cl)nc2ccccc21)Nc1cccc(Cl)c1	11	2.0	nt	-1	0.8	4.9	8%	17
O=C(Nc1ccccc1-c1nnn(CC(=O)N2CCCc3ccccc32)n1)c1ccco1	15	0.6	-5.5	2	-0.3	nt	6%	22
O=C(Cn1c2c(c(-c3ccccc3Cl)cc1=O)CCC2)NCCCN1CCOCC1	-4	?	-8.6	0	-3.7	-2.6	22%	18
CCOC(=O)N1CCN(C(=O)COc2ccc3ccccc3c2Br)CC1	9	-4.2	-1.1	-2	0.1	-2.9	nt	5
CC(C)(C)c1ccc(C(=O)Nc2ccc3c(c2)C(=O)NC3=O)cc1	-2	3.6	5.0	9	0.4	-5.6	nt	7
COc1ccc(-c2cc(N3C(=O)Nc4ccccc4N3O)n[nH]2)c(OC)c1	-23	2.0	-2.6	1	-0.1	0.9	0%	-13
CCCCn1c(N)c(N(CCC(C)C)C(=O)C2CSC3(C)CCC(=O)N23)c(=O)[nH]c1=O (stereo not drawn)	6	-3.7	-1.1	0	0.2	-1.6	2%	-8
Cc1[nH]n(-c2ccccc2)c(=O)c1N=Nc1c(Cl)cccc1Cl	-1	-1.4	1.4	-6	0.1	nt	nt	-4
CCc1ccc(S(=O)(=O)N/N=C(/C)c2ccncc2)cc1	-8	-2.4	7.1	-13	0.4	-1.9	nt	2
COc1ccccc1/C=C1/SC(=S)N(C(C)C(=O)NC2C=CS(=O)(=O)C2)C1=O (stereo not drawn)	-9	7.1	0.1	-2	0.6	9.2	nt	-5
Cc1ccn(S(=O)(=O)c2ccc(C(C)(C)C)cc2)n1	-11	?	-3.1	2	-0.5	nt	-3%	3
COc1ccc(Cl)cc1NC(=O)CSc1nnc(-c2ccncc2)n1CC1CCCO1 (stereo not drawn)	11	0.0	0.6	nt	0.8	nt	-4%	3
COC(=O)[C@H]1C[C@@H](c2ccccc2)[C@H](C)C1(C)C	nt	nt	1.0	5	0.5	1.6	nt	nt
Cc1ccc(S(=O)(=O)NC(N)=NCCc2ccc(Cl)cc2)cc1	?	0.3	4.1	-5	0.7	nt	nt	-10
Cc1ccc(C(=O)N2NC(c3ccccc3F)C3C(=O)N(c4cccc(C)c4)C(=O)C32)cc1 (stereo not drawn)	1	3.5	-9.1	-2	0.1	0.4	0%	-12
COc1ccc(-n2c(SCC(=O)Nc3cccc(S(N)(=O)=O)c3)nc3ccccc3c2=O)cc1OC	10	0.4	-0.4	0	2.0	-4.7	nt	-11
Cc1cccc(NC(=S)NC(=O)c2ccc(Br)o2)c1	-3	3.8	3.9	-2	-0.1	1.0	-2%	12
COCCn1nnnc1C(c1cc2c(C)cc(C)cc2[nH]c1=O)N1CCCCCC1 (stereo not drawn)	?	-5.2	-1.2	-7	1.0	nt	-3%	-11
Cc1ccc(NS(=O)(=O)c2cccc(C(=O)O)c2)cc1S(=O)(=O)N1CCCCC1	-3	0.4	1.2	-9	1.4	nt	nt	-7
O=C(NC12CC3CC(CC(C3)C1)C2)c1cncc(O)c1	-31	nt	4.1	7	0.0	nt	4%	-5
CC(C)CNC(=O)C(=O)NCC(c1ccc2c(c1)OCO2)N1CCOCC1 (stereo not drawn)	-2	1.1	8.7	-3	0.2	-1.6	nt	-6
COc1ccc(S(=O)(=O)N2CCC3(CC2)OCCN3S(=O)(=O)c2ccccc2)cc1OC	8	2.3	-8.1	nt	-1.2	-0.5	3%	11
O=c1c2ccc(Cl)cc2nc2n1CC/C2=C\c1cccc(O)c1	-3	-1.5	-8.0	7	0.3	0.9	nt	-5
COc1ccc(Cl)cc1C(=O)OCC(=O)c1ccc[nH]1	nt	nt	2.1	-1	-0.4	-0.9	4%	nt
CCC(=O)Nc1ccc(Cl)c(NC(=S)NC(=O)c2ccco2)c1	-15	-2.1	-2.8	8	-0.5	-2.6	-9%	-8
Cc1csc(SCc2ccc(C(=O)O)cc2)n1	-10	8.0	-2.7	-6	-5.3	nt	18%	-7
Cc1nc(NCC2CC2)c2nnn(Cc3ccccc3)c2n1	1	-1.8	0.1	0	-0.2	-2.2	-2%	3

Continuation:
SMILES	Calb FLC	RanGTP-Impb inh	LANA-H2B inh	Beta cell apopt	A1 inh	AF4-AF9 inh	Vif TR-FRET	T cruzi repl
NC(=O)COC(=O)/C=C/c1ccc(S(=O)(=O)N2CCCCCC2)cc1	-3	-0.6	2.0	-3	-0.4	7.0	1%	-14
CCOc1ccccc1Nc1nc2ccccc2[nH]1	-20	4.7	-1.4	2	-0.4	nt	-1%	2
c1ccc(CSc2ncnc3c2sc2nc(N4CCOCC4)c4c(c23)CCCC4)cc1	-8	4.8	-0.1	-4	0.3	nt	-113%	-8
O=C(O)CNS(=O)(=O)/C=C/c1ccccc1	-2	0.0	-0.3	3	0.0	-0.9	5%	-5
CCCCc1nc2cc(C(=O)N3CCCC3)ccc2o1	-1	4.7	-1.6	nt	-9.1	-11	nt	-24
COCCSc1ccccc1C(=O)Nc1nnc(C)s1	1	1.7	-1.2	-3	0.3	nt	0%	-12
O=C1CCC[C@@H]2[C@H]3CCC[N+]4([O-])CCC[C@@H](CN12)[C@@H]34 (stereo partly drawn)	4	4.7	1.4	-3	-0.4	-0.1	nt	-10
N#Cc1ccc(OCc2ccc(C(=O)O)o2)cc1	0	0.6	-0.9	-6	-2.4	-0.9	-6%	0
Nc1nc(SCC(=O)N2CCCc3ccccc32)[nH]c(=O)c1-c1ccccc1	-9	0.3	3.0	3	-0.8	5.3	28%	11
CN(CC(=O)Nc1ccc(F)cc1)CC(=O)N1CCCCC1	nt	nt	-5.6	-7	-0.5	0.7	nt	nt
O=C(COC(=O)/C=C/c1ccco1)Nc1cc(S(=O)(=O)N2CCOCC2)ccc1Cl	nt	nt	0.1	0	-1.1	0.7	nt	nt
CCn1ncc(Br)c1C(=O)Nc1sc2c(c1C(=O)OC)CCC2	-4	8.4	-3.4	2	0.6	nt	nt	-6
